High-throughput results (PubChem)
Ecoli rRNA inh – inhibitors of bacterial rRNA selective over humanized ribosomes | E. coli WT GFP vs humanized-ribosome RFP mutants, fluorescence, 24 h; hits give low values; DMSO median 0, no signal -100 | GFP signal change (wild-type ribosome), % (concentration not given with the values) | 350,000 tested, 1.6% active;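 active = significant combined selectivity score with lowered wild-type GFP, culture density cut under 30%, mutant RFP and density less affected; inactive = any of these conditions unmet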; note: one replicate is shown; some compounds called inactive have numbers as strong as hits
AF4-AF9 inh – MLL-AF4/AF9 protein interaction inhibition | P42568 | AlphaScreen, biotin-AF4 peptide binding to FLAG-AF9 | inhibition, % at 10 µM | 350,000 tested, 0.47% active | AID 651704;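 active = every replicate reaching a set inhibition limit, whatever the replicate mean, cut at about 25% in these data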;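 note: 0% = plate neutral control median and 100% = total signal loss; the record names both 10 and 1 µM as test concentration; the first replicate is given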
Target sequence (P42568 whole entry, looked up): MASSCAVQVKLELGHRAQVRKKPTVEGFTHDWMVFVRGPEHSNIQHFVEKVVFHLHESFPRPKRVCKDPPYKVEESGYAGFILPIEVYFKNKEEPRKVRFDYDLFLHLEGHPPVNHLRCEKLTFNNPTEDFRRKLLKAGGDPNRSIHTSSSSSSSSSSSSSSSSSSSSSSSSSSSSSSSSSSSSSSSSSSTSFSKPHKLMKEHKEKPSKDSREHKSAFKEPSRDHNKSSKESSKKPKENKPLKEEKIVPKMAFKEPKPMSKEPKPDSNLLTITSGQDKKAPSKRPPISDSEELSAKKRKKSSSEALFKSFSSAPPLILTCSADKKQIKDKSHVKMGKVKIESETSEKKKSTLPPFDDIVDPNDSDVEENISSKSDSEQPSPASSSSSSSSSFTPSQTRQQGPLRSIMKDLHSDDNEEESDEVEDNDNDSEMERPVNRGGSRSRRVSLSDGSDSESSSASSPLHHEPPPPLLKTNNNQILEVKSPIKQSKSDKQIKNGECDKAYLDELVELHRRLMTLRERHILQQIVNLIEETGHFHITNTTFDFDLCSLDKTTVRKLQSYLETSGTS
Ecoli rRNA inh OD600 – second read-out of Ecoli rRNA inh, no call of its own (marks repeat the call); OD600 change, %; measured here: OD600 growth;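 optical density of the mix in the first replicate; 0 = DMSO median and -100 = no signal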
Ecoli rRNA inh RFP – second read-out of Ecoli rRNA inh, no call of its own (marks repeat the call); RFP signal change, %; measured here: RFP humanized mutant strains;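 first replicate; 0 = DMSO median and -100 = no signal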
* hit, by the source's call; & = joins results of further samples.

Every second line gives: Ecoli rRNA inh | Ecoli rRNA inh OD600 | Ecoli rRNA inh RFP | AF4-AF9 inh
- C[C@@H]1CCCCO[C@H](CN(C)C(=O)Nc2cccc3ccccc23)[C@H](C)CN([C@H](C)CO)C(=O)c2cc(NS(=O)(=O)c3ccccc3)ccc2O1
→ 0 | 1 | 2.4 | -1.0
- N#Cc1cccc(-c2ccc(C3[C@H]4CNC[C@@H]3N4C(=O)Nc3cccc(F)c3)cc2)c1 (some centres not stated)
→ -58&-39 | -79&-72 | -16&-6.5 | -1.2
- CC(C)(O)C#Cc1ccc([C@H]2[C@@H](CO)N3CCCCN(C(=O)c4cccc(F)c4)C[C@@H]23)cc1
→ 3 | 7 | 4.7 | -3.9
- CCC(=O)N(C)C[C@@H]1Oc2ncc(-c3ccccc3OC)cc2C(=O)N([C@@H](C)CO)C[C@@H]1C
→ -2 | 1 | 1.2 | -2.6
- C[C@H]1CN([C@@H](C)CO)S(=O)(=O)c2ccc(C#CC3(O)CCCC3)cc2O[C@H]1CN(C)C(=O)Nc1ccccc1
→ -4 | -5 | -0.3 | -11
- CC(C)NC(=O)N(C)C[C@H]1OCCCC[C@H](C)Oc2ccc(NC(=O)CCC(F)(F)F)cc2C(=O)N([C@@H](C)CO)C[C@@H]1C
→ 0 | 0 | 0.9 | -0.1
- C[C@@H]1CN([C@@H](C)CO)C(=O)c2cc(NC(=O)Cc3cn(C)c4ccccc34)ccc2O[C@H]1CN(C)Cc1ccc(Oc2ccccc2)cc1
→ 5 | -1 | 3.6 | 4.1
- C[C@H]1CN([C@@H](C)CO)C(=O)Cc2cc(NC(=O)NC3CCCCC3)ccc2O[C@@H]1CN(C)S(=O)(=O)c1ccc(F)cc1
→ 0 | -2 | -1.8 | 0.3
- C[C@H](CO)N1C[C@H](C)[C@@H](CN(C)C(=O)c2cnccn2)Oc2cc(C#CC3CC3)ccc2S1(=O)=O
→ -1 | 3 | -3.3 | -1.7
- CN1CCN(c2cc(-c3cccc(C(=O)O)c3)nc3ccnn23)CC1
→ 23 | 22 | -0.5 | 2.4
- C[C@H]1CN([C@@H](C)CO)C(=O)c2cc(C3=CCCCC3)cnc2O[C@H]1CN(C)C(=O)c1ccc2c(c1)OCO2
→ 7 | -3 | -1.7 | -6.9
- C[C@@H]1CN([C@H](C)CO)C(=O)Cc2cc(NC(=O)Nc3ccc4c(c3)OCO4)ccc2O[C@@H]1CN(C)Cc1ccc(Cl)c(Cl)c1
→ 0 | -1 | -0.5 | 3.4
- CC(=O)Nc1ccc2c(c1)C(=O)N(C)[C@H]1CC[C@H](CC(=O)NCc3ccccc3Cl)O[C@@H]1CO2
→ 0 | 0 | 0.6 | -0.7
- COc1ccc(S(=O)(=O)Nc2ccc3c(c2)C(=O)N([C@@H](C)CO)C[C@@H](C)[C@H](CN(C)Cc2ccc(C(=O)Nc4ccccc4N)cc2)OCCCC[C@@H](C)O3)cc1
→ 0 | 5 | -2.7 | -0.4
- Cc1noc(C)c1S(=O)(=O)Nc1ccc2c(c1)CC(=O)N([C@@H](C)CO)C[C@H](C)[C@H](CN(C)C(=O)Nc1ccc(C(F)(F)F)cc1)O2
→ 6 | 3 | 1.8 | -1.1
- COc1cc(CN2CC3(CCN(C(C)=O)CC3)c3c([nH]c4cc(OC)ccc34)[C@H]2CO)cc(OC)c1
→ 6 | 6 | 0.7 | -2.0
- C[C@@H]1CN([C@@H](C)CO)S(=O)(=O)c2ccc(/C=C/c3ccccc3)cc2O[C@@H]1CN(C)Cc1ccccc1
→ -1 | 3 | 3.7 | 8.6
- O=C(Nc1cccc2nsnc12)c1cc2c(cc1Cl)Sc1nccn1S2(=O)=O
→ 2 | 5 | 3.0 | -8.9
- CCCC(=O)Nc1ccc2c(c1)C(=O)N(C)[C@@H]1CC[C@H](CC(=O)NCC3CC3)O[C@H]1CO2
→ 3 | 0 | 0.6 | -9.8
- CO[C@H]1CC[C@H]2CCOc3ccc(C#N)cc3C(=O)N(C)[C@@H](C)C(=O)N(C)C[C@@H]1O2
→ 3 | 5 | -0.7 | -0.7

Given with each value named: entries from further up
mol: C[C@H]1CN([C@@H](C)CO)C(=O)c2cc(C3=CCCCC3)cnc2O[C@H]1CN(C)C(=O)c1ccc2c(c1)OCO2
  Ecoli rRNA inh = 7; Ecoli rRNA inh OD600 = -3; Ecoli rRNA inh RFP = -1.7; AF4-AF9 inh = -6.9

mol: Cc1noc(C)c1S(=O)(=O)Nc1ccc2c(c1)CC(=O)N([C@@H](C)CO)C[C@H](C)[C@H](CN(C)C(=O)Nc1ccc(C(F)(F)F)cc1)O2
  Ecoli rRNA inh = 6; Ecoli rRNA inh OD600 = 3; Ecoli rRNA inh RFP = 1.8; AF4-AF9 inh = -1.1

More structures
Every second line gives: Ecoli rRNA inh | Ecoli rRNA inh OD600 | Ecoli rRNA inh RFP | AF4-AF9 inh
- C[C@@H]1COc2cccc(NCCCN3CCOCC3)c2S(=O)(=O)N1
→ 22 | 18 | 3.3 | 0.6
- CC(C)NC(=O)Nc1cccc2c1O[C@H](CN(C)C(=O)Nc1ccc3c(c1)OCO3)[C@H](C)CN([C@H](C)CO)C2=O
→ 3 | 10 | -1.4 | -1.0
- CC(=O)N(C)C[C@@H]1Oc2cc(-c3cccnc3)ccc2S(=O)(=O)N([C@H](C)CO)C[C@H]1C
→ -1 | 0 | -2.9 | 5.3
- COc1cc(CN2CCC(C(=O)NC(c3ccccc3)c3ccsc3)CC2)cc(OC)c1 (configuration not stated)
→ 0 | -34 | 19 | -0.3
- CNC[C@@H]1Oc2c(N)cccc2C(=O)N([C@@H](C)CO)C[C@H]1C
→ 2 | 12 | 1.4 | -2.3
- C[C@H]1CN([C@@H](C)CO)S(=O)(=O)c2ccc(-c3cccnc3)cc2O[C@H]1CN(C)C(=O)C1CCCCC1
→ -2 | 7 | 1.5 | 2.3
- CN(C)CC(=O)N1C[C@H]2[C@@H](c3ccccc31)[C@@H](CO)N2C(=O)c1ccccn1
→ 3 | 1 | -0.2 | -9.7
- C[C@@H]1CN([C@H](C)CO)C(=O)c2ccccc2-c2ccccc2CO[C@@H]1CN(C)Cc1cccnc1
→ 0 | 2 | -3.3 | -1.3
- O=C(Nc1ccc2c(c1)OCO2)N[C@H]1CC[C@H](CCNC(=O)C2CCOCC2)O[C@H]1CO
→ 1 | 0 | -0.3 | -0.4
- COCCNC(=O)C[C@@H]1C[C@@H]2c3cc(NC(=O)Nc4ccccc4)ccc3O[C@@H]2[C@@H](CO)O1
→ 2 | -3 | -3.3 | -1.0
- CC1(C(=O)Nc2ccc3c(c2)OCCO3)CCN1C(=O)C1(c2ccc(Cl)cc2)CC1 (configuration not stated)
→ -13 | -23 | -5.5 | -1.3
- C=C(C)Cn1c2ccc(NC(=O)NCc3ccc(F)cc3)cc2c(=O)n1C
→ -4 | -6 | -3.6 | -4.0
- CO[C@H](CN(C)S(=O)(=O)c1cn(C)cn1)[C@H](C)CN(C(=O)Nc1ccc(F)cc1)[C@H](C)CO
→ -2 | 8 | 0.4 | -1.1
- COCC(=O)Nc1ccc2c(c1)OC[C@@H](C)N(C(=O)Cc1cccnc1)C[C@H](C)[C@H](OC)CN(C)C2=O
→ 0 | 4 | -3.5 | -1.4
- C/C=C/c1cnc2c(c1)C(=O)N([C@H](C)CO)C[C@H](C)[C@H](CN(C)C(=O)c1ccc3c(c1)OCO3)O2
→ -1 | 3 | -3.9 | -7.4
- COc1cccc(S(=O)(=O)N[C@@H]2CC[C@@H](CC(=O)NCc3ccncc3)O[C@@H]2CO)c1
→ 0 | 2 | 1.1 | -2.1
- COc1ccc(-c2ccc([C@@H]3[C@H](CO)N4C(=O)CN(C(=O)NC(C)C)C[C@@H]34)cc2)cc1
→ -4 | 2 | -2.7 | -8.0
- C[C@H](CO)N1C[C@H](C)[C@H](CN(C)C(=O)Nc2ccccc2)Oc2ccc(NC(=O)Cc3cn(C)c4ccccc34)cc2CC1=O
→ 0 | 0 | 0.4 | -0.2
- COc1ccc(S(=O)(=O)N[C@H]2C=C[C@@H](CC(=O)NCCc3ccccc3)O[C@@H]2CO)cc1
→ -5 | -5 | -1.5 | 0.7
- C[C@H]1CCCCO[C@H](CN(C)Cc2ccc3c(c2)OCO3)[C@@H](C)CN([C@@H](C)CO)C(=O)c2cc(NC(=O)Nc3ccccc3)ccc2O1
→ -3 | -42 | 30 | 12
- CN1CCN(C(=O)C[C@H]2CC[C@@H]3[C@@H](COc4ccc(NC(=O)C5CCC5)cc4C(=O)N3C)O2)CC1
→ 1 | 3 | -3.5 | -1.7
- C[C@H](CO)N1C[C@H](C)[C@H](CN(C)S(C)(=O)=O)Oc2ccc(NC(=O)Nc3cccc4ccccc34)cc2CC1=O
→ -1 | -5 | -0.2 | -0.2
- CCNC(=O)[C@@H]1[C@@H](CO)[C@@H]2Cn3c(ccc(-c4cccc(F)c4)c3=O)[C@H]1N2C(C)=O
→ 6 | 12 | 0.1 | -5.4
- CCC(=O)NC[C@H]1[C@@H](c2ccccc2)[C@H](CO)N1C(=O)C1CC1
→ 1 | -1 | -1.8 | -5.9
- C[C@H]1CN([C@@H](C)CO)C(=O)c2cc(NC(=O)CCC(F)(F)F)ccc2O[C@@H]1CN(C)Cc1ccc(C(=O)O)cc1
→ 6 | 1 | -2.8 | -5.2
- COCCNC(=O)C[C@@H]1CC[C@H](NS(=O)(=O)c2ccc(C)cc2)[C@@H](CO)O1
→ 1 | 1 | 1.1 | -1.4
- Cc1ccc(S(=O)(=O)N[C@H]2CC[C@@H](CCNC(=O)C3CC3)O[C@@H]2CO)cc1
→ 1 | 1 | -2.9 | -2.8
- O=C(NC1Cc2ccccc2C1)[C@@H]1N[C@@H]2c3ccc(C4=CCCCC4)c(=O)n3C[C@@H]2[C@H]1CO
→ -11 | -32 | 2.6 | 8.3
- CCNC(=O)C[C@H]1CC[C@H]2[C@@H](COC[C@H](O)CN2Cc2ccc(Cl)c(Cl)c2)O1
→ -10 | -14 | -5.8 | 2.2
- Cc1ccc(F)c(S(=O)(=O)NC(=O)C2(C)CCN2C(=O)COc2ccc(Cl)cc2)c1 (configuration not stated)
→ 5 | 7 | -4.0 | -1.4
- O=C(C1CCC1)N1C[C@H]2[C@@H](c3ccccc31)[C@@H](CO)N2C(=O)Cc1ccccn1
→ 2 | -7 | -2.2 | 0.9
- C[C@H]1CN([C@@H](C)CO)C(=O)c2cc(NC(=O)CCC(F)(F)F)ccc2O[C@H]1CN(C)C(=O)Nc1cccc2ccccc12
→ 0 | 7 | 1.1 | 1.5
- COc1ccc(NC(=O)N[C@H]2CC[C@H](CC(=O)NC3CCCCC3)O[C@@H]2CO)cc1
→ -2 | -2 | -1.2 | -2.1
- CNC[C@@H]1Oc2c(NC(=O)c3nc4ccccc4s3)cccc2C(=O)N([C@H](C)CO)C[C@H]1C
→ 2 | 1 | 1.1 | -0.3
- COc1ccc(S(=O)(=O)N(C)C[C@@H]2OCCCC[C@@H](C)Oc3ccc(NS(=O)(=O)c4ccc(Cl)cc4)cc3C(=O)N([C@@H](C)CO)C[C@H]2C)cc1
→ 0 | 6 | 4.6 | -4.4
- O=C(c1ccccc1)N1C[C@@H]2[C@H](c3ccccc31)[C@H](CO)N2C(=O)Nc1ccccc1Cl
→ -5 | 0 | -0.7 | -2.5
- N#C[C@H]1[C@@H](c2ccccc2-c2cccc(F)c2)[C@@H](CO)N1C(=O)C1CCCCC1
→ 1 | -41 | -2.1 | -0.7
- C/C=C/c1cnc2c(c1)C(=O)N([C@H](C)CO)C[C@H](C)[C@@H](CN(C)Cc1ccc(F)cc1)O2
→ -4 | 8 | -3.2 | -0.1
- C[C@@H]1CCCCO[C@@H](CN(C)C(=O)Nc2ccc(C(F)(F)F)cc2)[C@H](C)CN([C@@H](C)CO)C(=O)c2cc(NC(=O)c3ccccc3)ccc2O1
→ 6 | 5 | -1.9 | -10
- CC=Cc1ccc2n(c1=O)C[C@H]1[C@H](CO)[C@@H](C(=O)NCCC)[C@@H]2N1C(=O)C1CCCC1 (mixture of isomers)
→ -6 | -13 | -4.7 | -1.9
- C[C@@H]1CN([C@H](C)CO)C(=O)c2cc(NS(=O)(=O)c3ccccc3)ccc2O[C@@H]1CN(C)S(C)(=O)=O
→ 4 | 1 | -1.2 | -0.9
- COc1ccccc1C(=O)N1CCCC(C)(C(=O)NS(=O)(=O)C2CC2)C1 (configuration not stated)
→ 7 | 12 | 2.1 | -2.5
- CO[C@@H]1CN(C)C(=O)c2ccc(NC(=O)c3ccc4c(c3)OCO4)cc2OC[C@@H](C)NC[C@@H]1C
→ -1 | 0 | -0.1 | -1.1
- COc1ccc(NC(=O)Nc2ccc3c(c2)CC(=O)N([C@H](C)CO)C[C@@H](C)[C@H](CN(C)S(=O)(=O)c2ccc(C)cc2)O3)cc1
→ -3 | -4 | 1.7 | -0.1
- O=C(NCC(F)(F)F)[C@@H]1[C@@H](CO)[C@@H]2Cn3c(cccc3=O)[C@@H]2N1C(=O)c1ccccc1F
→ 0 | 0 | -2.7 | -16
- COCc1cn(CC[C@@H]2CC[C@H](NC(=O)Cc3cccnc3)[C@@H](CO)O2)nn1
→ -1 | -3 | -0.2 | -2.2
- O=C(NCC1CC1)[C@H]1[C@H](CO)[C@H]2Cn3c(ccc(-c4ccc(F)cc4)c3=O)[C@@H]1N2
→ -1 | 1 | -3.9 | -4.4
- C[C@@H]1CN([C@@H](C)CO)C(=O)c2cc(NC(=O)Nc3ccc4c(c3)OCO4)ccc2O[C@@H](C)CCCCO[C@@H]1CN(C)S(=O)(=O)c1ccc(F)cc1
→ 2 | 5 | -3.1 | 0.2
- C[C@@H]1CN([C@@H](C)CO)C(=O)c2ccccc2-c2ccccc2CO[C@H]1CN(C)C(=O)CCC(F)(F)F
→ -1 | 2 | 1.2 | -2.3

This is a subset; rates above refer to the full screens.
